Mtb bLac sens – beta-lactam sensitization of Mtb H37Rv; M. tuberculosis H37Rv growth with meropenem, percent inhibition; hits of this screen are not shown here; inhibition, % at 25 µM; 330,000 compounds, 0.27% hits;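 active = about 74% or more and at least 40 points above the plate without the antibiotic, then above 30% in a dose series; inconclusive = first-round hits that could not be retested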;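 also: growth measured after seven days incubation then overnight dye step; 0% = bacteria only wells and 100% = bacteria with antibiotic; twin plates without the antibiotic show which effects depend on it; some results filed as inactive read as strong as hits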
RecA intein inh – inhibitors of M. tuberculosis RecA intein splicing; 290,000 compounds, 0.75% hits; P9WHJ3; cell-free RecA intein splicing, fluorescence; inhibition, %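 (about 9 µM by stock and volumes)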; in the data active = inhibition above about 30%; inconclusive = no clear call, values can overlap the other calls;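 also: 0% = vehicle wells and 100% = reference inhibitor control wells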
Target sequence (P9WHJ3 whole entry, looked up): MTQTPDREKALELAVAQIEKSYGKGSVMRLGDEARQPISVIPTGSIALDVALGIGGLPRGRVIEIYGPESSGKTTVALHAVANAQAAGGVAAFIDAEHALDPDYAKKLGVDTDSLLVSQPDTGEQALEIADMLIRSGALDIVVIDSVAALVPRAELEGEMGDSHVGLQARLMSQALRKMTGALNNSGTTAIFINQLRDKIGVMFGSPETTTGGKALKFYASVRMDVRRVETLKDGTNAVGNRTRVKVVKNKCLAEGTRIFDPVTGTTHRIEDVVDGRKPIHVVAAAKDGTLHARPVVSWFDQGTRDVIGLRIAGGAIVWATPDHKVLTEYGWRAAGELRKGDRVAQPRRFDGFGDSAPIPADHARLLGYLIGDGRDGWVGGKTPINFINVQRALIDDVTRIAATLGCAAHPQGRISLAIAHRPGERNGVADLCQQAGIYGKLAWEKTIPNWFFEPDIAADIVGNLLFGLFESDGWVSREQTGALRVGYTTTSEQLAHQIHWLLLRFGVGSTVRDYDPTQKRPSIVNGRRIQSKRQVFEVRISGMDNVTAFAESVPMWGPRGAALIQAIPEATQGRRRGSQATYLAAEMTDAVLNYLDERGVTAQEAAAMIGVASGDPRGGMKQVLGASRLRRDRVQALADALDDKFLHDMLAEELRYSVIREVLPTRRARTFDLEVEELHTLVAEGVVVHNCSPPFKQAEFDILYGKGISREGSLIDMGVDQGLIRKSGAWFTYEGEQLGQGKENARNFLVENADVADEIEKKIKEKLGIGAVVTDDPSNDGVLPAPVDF
Arbovirus inh – antivirals against arbovirus infection. inhibition, % at 10 µM. arbovirus infection cell-based antiviral screen. 200,000 compounds, 0.37% hits;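 active = inhibition from about 30%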;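 also: bluetongue infection of BSR cells; cell survival read as ATP light after 72 h; 0% = infected wells without compound and 100% = uninfected wells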
YopH inh – inhibitors of Yersinia enterocolitica YopH tyrosine phosphatase. inhibition, %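 (about 10 µM by stock and volumes)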. fluorescence Ex485/Em525. 140,000 compounds, 0.16% hits;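 active = inhibition of 50% or more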;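 also: controls were vehicle for no effect and minimum signal wells for full effect; inactives centre near -20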
Mtb growth – M. tuberculosis H37Rv growth inhibitors, H37Rv strain (AID 1626) | M. tuberculosis H37Rv growth inhibition; higher % means a stronger effect | inhibition, % at 10 µM, or IC50 in µM where a hit was titrated | 220,000 compounds, 0.95% hits;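 active = confirmed in a dose series; inconclusive = inhibition above 80% but not taken into the dose series; inactive = below 80% or under 30% at every dose of the series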;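 also: bacteria incubated seven days before Alamar blue readout; 0% = bacteria only wells and 100% = bacteria with antibiotic wells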
Arbovirus inh repeat – recorded beside Arbovirus inh, whose call it bears; inhibition, %; measured here: 10K subset replicate screen; many hits read low in the repeat;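 first of two repeat runs on a subset; 0% = infected and 100% = uninfected wells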
Active calls of the source: *; ? = inconclusive; . = no result given. The list is partial; count on the stated rates, not on these rows.

SMILES	Mtb bLac sens	RecA intein inh	Arbovirus inh	YopH inh	Mtb growth	others
COc1cccc(C(=O)Nc2cc(S(=O)(=O)N3CCCCC3)ccc2OC)c1	7	1.4	7	.	5%
Cc1ccc(OC(C)C(=O)O)cc1C (configuration not stated)	-2	.	3	26	2%
COC(=O)N/N=C/c1cn(Cc2ccc(Cl)cc2Cl)c2ccccc12	-1	-2.7	7	-11	10%
COc1ccc(N2CCOCC2)c(NC(=O)COc2cccc(C)c2C)c1	-5	0.0	.	.	.
O=C(NCCC1CCCCN1S(=O)(=O)c1cccs1)C(=O)NCc1ccccc1 (configuration not stated)	-9	-0.6	.	.	.
COC(=O)[C@]1(CC(C)C)N[C@H](c2ccc(-c3ccc4c(c3)OCO4)cc2)[C@@H]2C(=O)N(C)C(=O)[C@@H]21	1	19	.	.	.
NS(=O)(=O)c1cc(C(=O)OCCNC(=O)c2ccccc2)c(Cl)cc1Cl	-1	-0.4	.	.	.
O=C(NCc1ccco1)c1ccc(NS(=O)(=O)c2cccc(F)c2)cc1	-15	-2.0	.	.	.
O=C(NN1CCOCC1)c1cc(S(=O)(=O)Nc2cccc(C(F)(F)F)c2)ccc1Cl	2	-4.9	-4	-24	10%
CC(C)(C)[C@]1(O)CCN2C[C@H]3c4ccccc4CCc4cccc(c43)[C@@H]2C1	17	0.7	-15	-11	7%
CCOC(=O)N1CCN(C(=O)CSc2nnc(-c3cc(OC)ccc3OC)o2)CC1	.	.	9	-32	17%
COc1cccc(N/C(N)=N/c2nc(C)cc(=O)[nH]2)c1	5	0.6	.	.	.
COc1cccc(N2CCN(CC(=O)NC(=O)NCc3ccco3)CC2)c1	8	-1.1	10	.	0%
Cc1ccc(OCC(=O)Nc2ccc3c(c2)nc(CCN2CCCCC2)n3C)cc1	0	-1.0	.	.	.
O=C(N/N=C/c1ccc(OC(F)F)cc1OC(F)F)c1cccc(S(=O)(=O)N2CCOCC2)c1	8	2.6	-5	.	4%
Cc1ccc2cc(CN(CCN3CCCC3)C(=O)Nc3ccc(F)cc3)c(=O)[nH]c2c1C	2	2.0	-12	12	-7%
CC(Oc1ccccc1)C(=O)Nc1ccc(S(=O)(=O)N2CCOCC2)cc1 (configuration not stated)	1	0.5	5	-4	-9%
Cc1nn(-c2ccc(C(=O)O)cc2)c(C)c1Oc1ccccc1O	3	5.6	-2	-16	-3%
Cc1ccc(C)c(N2N=C(C(=O)NCCN3C(=O)S/C(=C\c4cccnc4)C3=O)CCC2=O)c1	-4	10.0	.	.	.
OCC1(CCc2ccccc2)CCCN(C/C=C/c2ccccc2)C1 (configuration not stated)	-1	4.1	.	.	.
S=C(NC1CCCCC1)N1CCOCCOCCN(C(=S)NC2CCCCC2)CCOCCOCC1	-16	13	.	.	0%
Cc1ccc(S(=O)(=O)CCC(=O)O)cc1C	8	-0.5	-3	-13	-11%
Cc1cc(C(=O)N/N=C/C=C/c2cccc([N+](=O)[O-])c2)n[nH]1	2	-1.0	4	.	2%
Cc1ccccc1OCc1nc2ccccc2c(=O)n1/N=C/c1cn[nH]c1-c1ccc(Br)cc1	?	-0.3	-9	2	6%

The final 2 compounds of the part before are carried over, then new ones follow:
SMILES	Mtb bLac sens	RecA intein inh	Arbovirus inh	YopH inh	Mtb growth	others
Cc1cc(C(=O)N/N=C/C=C/c2cccc([N+](=O)[O-])c2)n[nH]1	2	-1.0	4	.	2%
Cc1ccccc1OCc1nc2ccccc2c(=O)n1/N=C/c1cn[nH]c1-c1ccc(Br)cc1	?	-0.3	-9	2	6%
CC1=CN2C(=N)/C(=C/c3ccco3)C(=O)N=C2S1	-1	1.8	-14	-16	-1%
Cn1c(N)c(C(=O)COC(=O)CCc2nc3ccccc3s2)c(=O)n(C)c1=O	6	-2.5	6	.	-7%
COc1cc(CC(=O)Nc2ccc3nc(SC)sc3c2)cc(OC)c1OC	97	2.8	.	.	11µM*
Cc1cccc(NC(=O)N(Cc2cc3cc(C)ccc3[nH]c2=O)CC2COCCO2)c1 (configuration not stated)	3	-3.6	-9	.	-1%
CN(C)/C=C/C(=O)c1cnc2sccn2c1=O	3	1.8	4	.	-4%
Cc1cccc(-n2ncc3c(N4CCC(C)CC4)ncnc32)c1	8	20	-1	-17	22%	Arbovirus inh repeat=-5
CCC1C(=O)CC(c2ccco2)NC1c1ccco1 (configuration not stated)	-6	-0.5	1	-21	-17%
COc1ccc(-c2cnnn2-c2ccc([N+](=O)[O-])cc2)cc1	0	1.5	.	.	.
CCOC(=O)CCc1c(C)nc(SCCCn2c(=O)[nH]c3ccccc32)c(C#N)c1C	-16	-15	-16	-5	12%
O=C(NCCCn1ccnc1)c1ccc2c(c1)OCCO2	7	-0.3	2	-38	-12%
O=C1N=C(N2CCOCC2)CS1	0	6.0	5	-24	-3%
CC1CCN(S(=O)(=O)c2ccc(C(=O)Nc3ccccc3-c3nc4ccccc4[nH]3)cc2)CC1	2	-2.5	-7	-39	-5%

Quoted at random: 4 compounds from above, in no set order.
SMILES	Mtb bLac sens	RecA intein inh	Arbovirus inh	YopH inh	Mtb growth	others
O=C1N=C(N2CCOCC2)CS1	0	6.0	5	-24	-3%
Cc1cccc(-n2ncc3c(N4CCC(C)CC4)ncnc32)c1	8	20	-1	-17	22%	Arbovirus inh repeat=-5
CN(C)/C=C/C(=O)c1cnc2sccn2c1=O	3	1.8	4	.	-4%
CCC1C(=O)CC(c2ccco2)NC1c1ccco1 (configuration not stated)	-6	-0.5	1	-21	-17%

Further structures follow.
SMILES	Mtb bLac sens	RecA intein inh	Arbovirus inh	YopH inh	Mtb growth	others
O=C(CSc1nc(-c2ccco2)cc(C(F)(F)F)n1)NCCCN1CCOCC1	14	-2.5	-1	.	-2%
CSc1nsc(SCC(=O)Nc2ccc(C(C)=O)cc2)n1	100	2.4	-3	-17	?
COc1ccc(C(=O)N2CCSC2=S)cc1OC	-2	0.8	7	-3	-8%
Cc1ccccc1CSCCNC(=O)c1ccc(Cl)c(S(=O)(=O)N2CCOCC2)c1	-5	5.2	1	-30	2%
CCC(C)Oc1nc2c(c(=O)n(C)c(=O)n2C)n1C (configuration not stated)	1	0.0	.	.	-7%
Cc1cc(C)c(NC(=O)C2CCCN2CCO)c(C)c1 (configuration not stated)	-1	1.5	0	-21	-13%
N#Cc1ccc(C(=O)NCCCSc2ccccc2)cc1	-5	-4.2	.	.	.
O=S(=O)(c1ccc2c(c1)OCCO2)N1CCN(c2ncnc3sccc23)CC1	3	2.0	11	.	4%
O=C(CNS(=O)(=O)c1cccs1)Nc1ccc2c(c1)OCCO2	-6	3.2	3	-20	-4%	Arbovirus inh repeat=4
O=C(c1cnn(C(=O)c2cccc(S(=O)(=O)N3CCOCC3)c2)c1)c1cc(Cl)cc(Cl)c1O	-4	4.2	.	.	0%
Cc1c(Nc2nc(C(F)(F)F)nc3ccccc23)c(=O)n(-c2ccccc2)n1C	9	-0.9	4	.	2%
COCCN1C(=O)N[C@@H](c2ccccc2)[C@H](C(C)=O)[C@H]1C	-17	0.5	.	.	-6%
Cc1cc(C)c(S(=O)(=O)N2CCOC2CNC(=O)C(=O)NCCN(C)C)c(C)c1 (configuration not stated)	-5	-1.9	.	.	.
CCOC(=O)N1CCN(Cc2nc(N)nc(Nc3ccc(OCC)cc3)n2)CC1	0	0.0	-1	-8	-1%
O=C(COc1ccc2oc3c(c2c1)CCCC3)Nc1ccccn1	84	-1.9	2	-22	45%
Fc1ccc(NCc2cn3ccccc3n2)cc1	1	-2.6	-1	-18	1%
O=C1OC(c2ccc(F)cc2)=N/C1=C\c1ccc(Br)o1	2	-1.4	14	.	-8%
COc1ccc(-c2nnc(S/C(=C/c3ccc(Cl)cc3)C(=O)O)o2)cc1	3	.	-23	.	-5%
O=C(NCc1ccccn1)C1CCC(=O)N1C1CCCC1 (configuration not stated)	0	1.0	1	-49	-2%	Arbovirus inh repeat=-1
COC(=O)C(Cc1ccc(O)cc1)NC(=O)NC12CC3CC(CC(C3)C1)C2 (configuration not stated)	-7	-0.3	.	.	.
COCC(=O)Nc1nnc(-c2cccs2)s1	-9	4.1	-1	-34	-4%
N#Cc1ccccc1Cn1c(=O)n(Cc2ccc(C(=O)NCc3ccco3)cc2)c(=O)c2ccccc21	?	1.0	-7	-19	40%
COc1ccc(NC(=O)c2ccccc2-c2ccccc2C(=O)O)cc1	45	-0.7	.	.	.
Clc1ccccc1CN1CCN(/N=C/C=C/c2ccco2)CC1	-6	5.0	.	.	-1%

Molecules above containing a cyano group:
SMILES	Mtb bLac sens	RecA intein inh	Arbovirus inh	YopH inh	Mtb growth	others
CCOC(=O)CCc1c(C)nc(SCCCn2c(=O)[nH]c3ccccc32)c(C#N)c1C	-16	-15	-16	-5	12%
N#Cc1ccc(C(=O)NCCCSc2ccccc2)cc1	-5	-4.2	.	.	.
N#Cc1ccccc1Cn1c(=O)n(Cc2ccc(C(=O)NCc3ccco3)cc2)c(=O)c2ccccc21	?	1.0	-7	-19	40%

Some of these compounds in order of SMILES length, smallest number first:
SMILES	Mtb bLac sens	RecA intein inh	Arbovirus inh	YopH inh	Mtb growth	others
Cc1ccc(OC(C)C(=O)O)cc1C (configuration not stated)	-2	.	3	26	2%
O=C(NCCCn1ccnc1)c1ccc2c(c1)OCCO2	7	-0.3	2	-38	-12%
COc1cccc(N2CCN(CC(=O)NC(=O)NCc3ccco3)CC2)c1	8	-1.1	10	.	0%
O=C(CSc1nc(-c2ccco2)cc(C(F)(F)F)n1)NCCCN1CCOCC1	14	-2.5	-1	.	-2%
NS(=O)(=O)c1cc(C(=O)OCCNC(=O)c2ccccc2)c(Cl)cc1Cl	-1	-0.4	.	.	.
Cn1c(N)c(C(=O)COC(=O)CCc2nc3ccccc3s2)c(=O)n(C)c1=O	6	-2.5	6	.	-7%
Cc1ccc2cc(CN(CCN3CCCC3)C(=O)Nc3ccc(F)cc3)c(=O)[nH]c2c1C	2	2.0	-12	12	-7%

(more compounds)
SMILES	Mtb bLac sens	RecA intein inh	Arbovirus inh	YopH inh	Mtb growth	others
CCOC(=O)c1nc(C)nc(Sc2n[nH]c(-c3ccc(C(C)(C)C)cc3)n2)c1C	63	7.2	.	.	-4%
Cc1cc(OCC(=O)Nc2ccc(CCO)cc2)c2c(C)c(C)c(=O)oc2c1	5	0.2	.	.	.
CCOC(=O)C1(Cc2ccccc2C(F)(F)F)CCN(C2CCC2)CC1	14	-0.5	4	.	-7%
CC(OC(=O)C1CC(=O)N(Cc2ccccc2)C1)C(=O)Nc1ccccc1[N+](=O)[O-] (configuration not stated)	-5	-3.8	.	.	.
Cc1ccc(C(=O)Nc2nnc(CC(=O)N/N=C/c3ccncc3)s2)cc1	1	-0.1	-5	.	-4%
c1ccc(-n2nnnc2Cc2nnnn2-c2ccccc2)cc1	-5	-0.7	16	.	-6%
O=C(O)c1ccc(S(=O)(=O)N2CCSCC2)cc1	2	0.9	.	.	.
COc1ccc(NC(=O)CSc2nnc(C3CC3)n2-c2ccccc2)cc1	.	8.6	-2	1	1%
Nc1nc(Nc2cccc(C(F)(F)F)c2)nc(C(F)(F)F)n1	39	-3.0	-9	-33	16%
CCc1cccc(N(C(=O)c2csnn2)C(C(=O)NC2CCCCC2)c2ccncc2)c1 (configuration not stated)	-4	2.2	.	.	.
CCOC(=O)N1CCN(C(c2ccc(Cl)cc2)c2sc3nc(C)nn3c2O)CC1 (configuration not stated)	2	3.1	-3	.	-3%	Arbovirus inh repeat=1
COc1cccc(Nc2nc(-c3cccs3)nc3ccccc23)c1	96	21	-32	-39	66%
CC1c2ccccc2N(NC(=O)Cc2ccccc2)C1C (configuration not stated)	-3	.	.	.	0%
